Source: PubChem (several laboratories)
Env fusion inh: HIV envelope-mediated fusion inhibition; HeLa-JRFL Env/CEM21 cell fusion, luciferase; inhibition, % at 12.3 µM; hit rate 1.1% among 360,000; AID 651610;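 active = mean replicate inhibition score of at least 50 and every replicate individually at or above 50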;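 also: 0% = plate neutral controls and 100% = maraviroc near 300 nM; one replicate is shown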
CSC inhib: cancer stem cell inhibition. cancer stem cell-like cells viability, luminescence. inhibition, % at 7.5 µM. hit rate 1.1% among 300,000. AID 2717;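 active = mean at 75% or more and at least half the replicates too; tested in HMLE shEcad cells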;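 also: 0% = median of negative and 100% = median of positive control wells; the first replicate is given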
Rce1 inhib: blocks yeast Ras-converting enzyme; Q03530; yeast membranes, quenched prenylated peptide cleavage fluorescence; calls only; hit rate 0.27% among 290,000;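 active = fall in fluorescence gain of 50% or more versus controls, with final raw signal at or below 3038400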;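 also: plate controls were neutral control wells for no effect and wells lacking membranes for full effect; tested at 10 µM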
Target sequence (Q03530 whole entry, looked up): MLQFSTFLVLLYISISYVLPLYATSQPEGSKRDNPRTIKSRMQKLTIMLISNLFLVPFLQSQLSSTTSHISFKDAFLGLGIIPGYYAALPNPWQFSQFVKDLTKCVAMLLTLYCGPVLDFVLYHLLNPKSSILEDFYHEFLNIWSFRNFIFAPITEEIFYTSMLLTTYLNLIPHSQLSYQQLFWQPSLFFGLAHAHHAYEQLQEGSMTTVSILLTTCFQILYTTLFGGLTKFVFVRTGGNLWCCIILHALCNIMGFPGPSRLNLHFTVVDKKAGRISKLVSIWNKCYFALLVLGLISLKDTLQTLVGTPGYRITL
MT1-MMP act inh: MT1-MMP (human) activation inhibition; P50281; HT1080 RFP-PRO-GFP cells, GFP/RFP ratio fluorescence, overnight; percent of plate control window, DMSO zero; GFP/RFP ratio change, % at 20 µM; hit rate 0.061% among 360,000;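 active = GFP/RFP ratio change of at least 30% with cell ATP level not reduced by more than half and red fluorescence within 50% of control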; also: strong numbers were not always called active
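Material: RFP-PRO-GFP reporter HT1080 cells. Dosing: single-point 20 µM compound, 1% DMSO. Controls: DMSO and RFP-L50D-GFP cell wells. Timing: cells overnight before dosing, compound overnight, 37 °C, 5% CO2. Measure: GFP/RFP fluorescence ratio.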
Yeast UUG start: yeast start codon fidelity modulation; S. cerevisiae UUG-firefly luciferase reporter, luminescence/redox ratio; activity score, % at 18.7 µM; hit rate 0.13% among 350,000;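 active = replicate mean at a twofold rise or more, about +100% in these data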;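 also: firefly luciferase made from a UUG start codon reports start codon fidelity; reporter light over untreated wells divided by growth signal over untreated wells; some hits fall short of that in this replicate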
eIF4H inh: inhibitors of RNA binding by human eIF4H | Q15056 | eIF4H fluorescence polarization binding assay | inhibition, % at 35 µM | hit rate 0.94% among 290,000 | AID 2012;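 active = 50% or more with normal probe brightness, or confirmed in later tests; about a fifth of its hits are not listed in these tables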;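 also: calls also rest on retests at 20 µM and on dose response follow-up; 0% = protein and probe with vehicle and 100% = probe without protein; strong numbers were not always called active; many hits fall short of the cut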
PABP FP inh: blocks human PABP binding to poly(A) RNA; fluorescence polarization; P11940; hit rate 1% among 290,000; inhibition, % at 35 µM;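 active = 50% or more with normal probe brightness, or confirmed in later tests; about a fifth of its hits are not listed in these tables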;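 also: calls also rest on retests at 20 µM and on dose response follow-up; controls were probe without protein and protein plus probe with vehicle; some compounds called inactive have numbers as strong as hits; many hits fall short of the cut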
MT1-MMP act inh RFP: also measured in MT1-MMP act inh; calls as there; RFP signal change, %; measured here: RFP expression control read;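 0 = vehicle wells; hits needed this value within 50% of zero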
Numbers without * were called inactive; i = inactive; x = no result given; & = joins results of further samples; [ ] = dose if it differs, or a comment. Not all compounds are listed; rates above refer to the full screens.

1) O=C(NCc1ccco1)C(=S)N1CCCCC1
2) c1ccc2nc(-c3nccs3)ccc2c1
3) CCOC(=O)CSc1nnc(-c2ccc(S(=O)(=O)NCc3cccs3)cc2)o1
4) CC1(Oc2cccc(C#N)c2)CCN(Cc2csc3ccccc23)C1 (stereo not given)
5) COc1ccc2[nH]cc(CCNC(=O)C3CCCCC3)c2c1
6) O=C(NCc1ccccc1)c1cccc(NC(=O)C2CCC2)c1
7) Cc1ccc(-c2nn(CC(=O)Nc3cccnc3)c(=O)c3ccccc23)cc1
8) COC(=O)c1ccc(Cn2c(C)c(C(=O)NCc3cccc(C(F)(F)F)c3)sc2=O)o1
assay / entry | 1 | 2 | 3 | 4 | 5 | 6 | 7 | 8
Env fusion inh | -12 | -19 | -10 | 7 | 7 | 8 | -1 | 1
CSC inhib | -18 | -7 | x | x | -3 | x | -6 | x
Rce1 inhib | i | x | i | x | i | x | i | x
MT1-MMP act inh | 5 | -4 | 7 | -2 | 1 | -2 | 8 | 4
MT1-MMP act inh RFP | 9 | -1 | 2 | -1 | -4 | -1 | 4 | -6
Yeast UUG start | x | x | -12 | -20 | -20 | -16 | -13 | -12
eIF4H inh | -5 | -5 | x | x | -10 | x | -7 | x
PABP FP inh | -13 | -12 | x | x | -9 | x | -10 | x

9) C=CCOC(=O)C1=C[C@@H](c2ccc(Br)cc2)[C@H](CCCO)[C@@H](OCC)O1
10) COc1ccc(C(=O)N2CCN(Cc3cn[nH]c3-c3ccc(OC)cc3F)CC2)cc1
11) Cc1ccc2nc(N3CCN(Cc4nnnn4Cc4ccccc4)CC3)c(C#N)cc2c1
12) Cc1nnc(SCC(=O)Nc2nccs2)[nH]c1=O
13) Cc1[nH]c(=O)[nH]c(=O)c1NC(=O)c1cccs1
14) COc1ccc(/C=C/C(=O)NC(C)C)cc1Br
15) Cc1cccc(N(CC(O)CN(C)C)S(=O)(=O)c2ccccc2)c1 (stereo not given)
16) O=S(=O)(Nc1ccccc1)C1CCCCC1
assay / entry | 9 | 10 | 11 | 12 | 13 | 14 | 15 | 16
Env fusion inh | 4[16.7 µM] | 13 | x | x | x | x | -28 | -5
CSC inhib | -1 | -8 | -7 | 2 | 1 | 7 | -8 | x
Rce1 inhib | i | i | i | i | i | i | i | x
MT1-MMP act inh | 11 | 0 | -1 | 2 | 3 | 6 | -12 | 0
MT1-MMP act inh RFP | -13 | -2 | 2 | 4 | 3 | 0 | 0 | -4
Yeast UUG start | 33&3 | x | 2 | -29 | x | -4 | -1 | -25
eIF4H inh | -9 | -7 | -1 | -4 | -4 | 7 | 3 | x
PABP FP inh | 9 | -3 | -5 | -8 | 0 | 4 | 15 | x

17) CN1C(C(=O)NCc2cccc(C(F)(F)F)c2)CC2Cn3c(nc4ccccc43)C21 (stereo not given)
18) CC1CCN(C(=O)CCNS(=O)(=O)c2ccc(Br)cc2)CC1
19) CCc1ccccc1NC(=O)CNC(=O)CNC(=O)C1CCCCC1
20) CCOc1cc(Cl)c(S(=O)(=O)NCc2cccnc2)cc1Cl
21) CN(CC(=O)Nc1ccc(S(=O)(=O)N2CCCC2)cc1)Cc1cccc(Cl)c1Cl
22) Cc1nc(SCC(=O)c2ccccc2)c(C#N)c(-c2ccco2)c1C(=O)NCc1ccco1
23) Cc1ccc(NC(=O)COC(=O)CNC(=O)c2ccc(Cl)cc2Cl)cc1S(=O)(=O)N1CCOCC1
24) CCOC(=O)c1c(-c2ccccc2)csc1NC(=O)CSc1ccccc1
assay / entry | 17 | 18 | 19 | 20 | 21 | 22 | 23 | 24
Env fusion inh | -3 | 10 | -11 | -21 | 4 | x | 3 | x
CSC inhib | -12 | x | x | -20 | 1 | 24 | 0 | x
Rce1 inhib | i | x | x | i | i | i | i | i
MT1-MMP act inh | 1 | 0 | 7 | -3 | -11 | -22 | -7 | -1
MT1-MMP act inh RFP | 2 | 1 | 3 | -15 | -11 | 0 | -2 | -5
Yeast UUG start | -15 | 24 | -14 | -12 | 4 | x | 6 | x
eIF4H inh | 4 | x | x | 15 | -14 | 5 | x | 6
PABP FP inh | -12 | x | x | 35 | -5 | 30 | x | 4

25) Cc1cc2n(n1)C(c1ccc3c(c1)OCO3)Nc1ccccc1-2 (stereo not given)
26) CCOc1ccc2[nH]c(=O)c(CN(CC3CCCN3CC)C(=O)NCc3ccccc3)cc2c1 (stereo not given)
27) COCCNC(=O)c1ccc2c(=O)n(CCOC)c(=O)[nH]c2c1
28) COc1ccc(C(=O)NCc2c(C)oc(C)c2C(=O)O)cc1
29) O=C(O)C1CC(=O)N(C2CCCCC2)C1c1ccccc1 (stereo not given)
30) CCN(Cc1ccccc1)S(=O)(=O)c1cc2[nH]c(=O)c(=O)[nH]c2cc1C
31) Cn1c(=O)n(C)c2cc(S(=O)(=O)O)ccc21
32) O=C(Cc1ccc([N+](=O)[O-])cc1)c1ccc(O)cc1O
assay / entry | 25 | 26 | 27 | 28 | 29 | 30 | 31 | 32
Env fusion inh | -82 | x | -60 | -2 | -25 | -33 | x | 11
CSC inhib | 15 | -2 | -11 | 1 | -7 | x | -12 | 5
Rce1 inhib | i | i | i | i | i | i | i | i
MT1-MMP act inh | 3 | 0 | 3 | 0 | 8 | -1 | 2 | -1
MT1-MMP act inh RFP | -3 | 6 | -2 | 5 | 4 | -1 | 5 | -1
Yeast UUG start | 7 | 1 | x | -9 | -10 | -11 | x | -24
eIF4H inh | -9 | 4 | -5 | 6 | -8 | -5 | 1 | -5
PABP FP inh | 8 | -2 | -4 | -2 | 2 | -4 | -2 | -1

33) Cc1nnc(SCc2nc3scc(-c4ccccc4)c3c(=O)[nH]2)s1
34) O=c1c2ccccc2ncn1-c1cccc(Cl)c1
35) O=C(Nc1nnc([C@H]2C[C@H](O)[C@@H](CO)O2)s1)c1cccc(C(F)(F)F)c1
36) Cc1ccccc1-n1nc(C)c2c1N=C1C(Cl)=CC(Cl)=CN1C2c1ccc(C(=O)O)cc1 (stereo not given)
37) O=C(COc1ccccc1)Nc1ccc2[nH]c(=O)[nH]c2c1
38) Cc1nc(CNS(=O)(=O)c2cc(C)c(C)cc2C)cs1
39) COc1ccc(/C=N/n2cnc3c([nH]c4ccc(F)cc43)c2=O)cc1CSc1ccccn1
40) Cc1cccc(C)c1-n1c(C)cc(/C=N/NC(N)=S)c1C
assay / entry | 33 | 34 | 35 | 36 | 37 | 38 | 39 | 40
Env fusion inh | 6 | x | -4 | -7 | -13 | x | 22 | x
CSC inhib | x | -12 | x | -1 | -16 | -16 | -13 | -4
Rce1 inhib | i | i | x | i | x | i | i | i
MT1-MMP act inh | 0 | 0 | 1 | -1 | 1 | 2 | -4 | 5
MT1-MMP act inh RFP | -7 | 0 | 7 | -3 | 0 | 2 | -8 | 2
Yeast UUG start | -21 | -10 | -5 | x | -5 | -15 | -16 | -28
eIF4H inh | 0 | 6 | x | 18 | 1 | 2 | -6 | -1
PABP FP inh | -5 | 5 | x | -6 | 18 | 0 | -6 | -6

Sorted by the number under MT1-MMP act inh (rising): 3 of the compounds above.
# | SMILES | MT1-MMP act inh
21 | CN(CC(=O)Nc1ccc(S(=O)(=O)N2CCCC2)cc1)Cc1cccc(Cl)c1Cl | -11
6 | O=C(NCc1ccccc1)c1cccc(NC(=O)C2CCC2)c1 | -2
16 | O=S(=O)(Nc1ccccc1)C1CCCCC1 | 0

The results go on:
41) Cn1cc(C(=O)N2CCCC(Nc3ccc(F)cc3)C2)c2ccccc21 (stereo not given)
42) Cc1c(NC(=O)CN2C(=O)NC3(CCCCC3C)C2=O)cccc1[N+](=O)[O-] (stereo not given)
43) CCSc1nc(=S)n(-c2ccccc2)c(C)c1C(C)=O
44) O=C(COC(=O)CNC(=O)c1ccc(Cl)c([N+](=O)[O-])c1)NC(=O)CN1CCCC1=O
45) COC(=O)c1cccc(COC(=O)c2ccc(N(C)C)cc2)c1
46) CC(=O)N1c2ccc(S(=O)(=O)N3CCC(C(=O)Nc4cccc(C)c4)CC3)cc2CC1C (stereo not given)
47) Cc1ccc(C(=O)Oc2ccc(-c3nnco3)cc2)o1
48) CN(c1ccc(C(=O)Nc2ccc(F)cc2F)cc1)S(=O)(=O)c1ccccc1
assay / entry | 41 | 42 | 43 | 44 | 45 | 46 | 47 | 48
Env fusion inh | 8 | -28 | x | -21 | -34 | 9 | -68 | 25
CSC inhib | 20 | x | x | -5 | 15 | -5 | -6 | 3
Rce1 inhib | i | x | i | i | i | i | x | i
MT1-MMP act inh | -2 | 0 | 4 | 0 | 1 | 0 | 7 | 4
MT1-MMP act inh RFP | -4 | 2 | 5 | 1 | 2 | -10 | 5 | -10
Yeast UUG start | 8 | -24 | x | -13 | -13 | -6 | -29 | -2
eIF4H inh | -11 | x | 2 | x | -2 | x | x | -4
PABP FP inh | 10 | x | 6 | x | -3 | x | x | 4

49) NC1=NC(=O)/C(=C\c2cc([N+](=O)[O-])ccc2Cl)S1
50) Cc1c(C(=O)NCc2ccc3c(c2)OCCO3)sc(=O)n1Cc1cccc(C(F)(F)F)c1
51) CCc1nnc(NS(=O)(=O)c2ccc(NC(=S)NC(=O)c3ccncc3)cc2)s1
52) Cc1cccc(NC(=O)CN2C(=O)S/C(=C\c3ccccn3)C2=O)c1
53) CCCCCc1nnc(NC(=O)c2ccc(=O)n(C)n2)s1
54) COc1cc2cnc(-c3cccnc3)cc2cc1OC
55) COc1ccccc1-c1nnc2n1N=C(c1ccc(O)c(O)c1)CS2
56) C=CCONC(=O)c1cc(OCC(F)(F)F)ccc1OCC(F)(F)F
assay / entry | 49 | 50 | 51 | 52 | 53 | 54 | 55 | 56
Env fusion inh | 8 | 14 | -14 | 5 | -1 | -39 | x | -105
CSC inhib | -13 | x | -13 | 3 | x | 3 | -14 | -4
Rce1 inhib | x | x | i | i | i | x | i | i
MT1-MMP act inh | 7 | 5 | 9 | 0 | 0 | 7 | 23 | -4
MT1-MMP act inh RFP | 9 | -15 | 11 | 0 | 1 | 7 | -2 | -2
Yeast UUG start | x | -21 | -24 | x | x | 6 | -19 | -14
eIF4H inh | 1 | x | -10 | -4 | -9 | x | -1 | -7
PABP FP inh | 2 | x | 10 | -5 | 6 | x | 5 | -6

57) O=C(C[n+]1ccccc1)N/N=C/c1ccc(F)cc1
58) N#Cc1ccc(C(=O)N2CCCCC2c2cc(C(=O)NCc3ccccc3)no2)cc1 (stereo not given)
59) Cc1ccn2cc(C(=O)Nc3nnc(C)s3)nc2c1
60) Cc1cc2ccccn2c1C(=O)c1ccc(C#N)cc1
61) Cc1ccc(C2CC(C(F)(F)F)n3ncc(C(N)=O)c3N2)cc1 (stereo not given)
62) COc1ccc(COC(=O)C2=C(C)NC(=O)NC2c2cc(OC)ccc2OC)cc1 (stereo not given)
63) C=CCOC(=O)c1[nH]c2c(c1C)C(=O)CC(c1cc(OC)c(OC)c(OC)c1)C2 (stereo not given)
64) COc1ccc(CNC(=O)C2CCC(=O)N(C3CCCCCC3)C2)c(OC)c1 (stereo not given)
65) COc1ccc(C(=O)N/N=C(\C)Cn2nc([N+](=O)[O-])cc2C)cc1
assay / entry | 57 | 58 | 59 | 60 | 61 | 62 | 63 | 64 | 65
Env fusion inh | 3 | 2 | -34 | 24 | x | 12 | x | -27 | x
CSC inhib | 0 | x | 8 | 1 | -2 | -10 | -5 | x | -8
Rce1 inhib | i | x | i | i | i | i | i | x | i
MT1-MMP act inh | 5 | 6 | 7 | 2 | 3 | 4 | 3 | -7 | -3
MT1-MMP act inh RFP | 7 | 2 | 5 | -12 | 3 | -4 | -27 | -3 | 6
Yeast UUG start | x | 1 | -12 | -4 | -4 | -17 | -10 | 3 | -4
eIF4H inh | -1 | x | 2 | -3 | -6 | -8 | -2 | x | 12
PABP FP inh | 4 | x | -5 | -3 | -3 | -2 | 4 | x | -4
